# Compound activity from PubChem BioAssay.
# GIV Gai3 FP: blocks GIV peptide binding to rat Galpha-i3; P08753; Galpha-i3/FITC-GIV peptide fluorescence polarization, 90 min; active compounds read low; scaled: aluminum fluoride 0%, vehicle 100%; percent of control (FP), % (concentration not given with the values); 210,000 compounds, 0.42% hits; AID 1224905;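 active = replicate mean at 85% of control or lower, very high polarization wells dropped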;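 note: wells of about 15 µL received 100 nL stock; the first replicate is given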
# Target sequence (P08753 whole entry, looked up): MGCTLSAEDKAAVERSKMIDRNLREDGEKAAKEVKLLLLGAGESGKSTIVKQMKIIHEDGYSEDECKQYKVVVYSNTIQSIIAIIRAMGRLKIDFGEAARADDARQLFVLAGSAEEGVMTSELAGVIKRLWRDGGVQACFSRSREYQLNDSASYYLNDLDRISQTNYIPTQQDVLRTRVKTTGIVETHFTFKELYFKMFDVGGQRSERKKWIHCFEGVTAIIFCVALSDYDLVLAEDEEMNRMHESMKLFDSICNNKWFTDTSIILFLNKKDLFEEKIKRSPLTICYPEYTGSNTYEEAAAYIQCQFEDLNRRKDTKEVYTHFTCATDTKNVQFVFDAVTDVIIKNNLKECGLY
# Sa growth 42C: inhibitors of Staphylococcus aureus growth at 42 °C | 170,000 compounds, 0.53% hits | relative growth, % (concentration not given with the values) | S. aureus RN4220 growth, OD600, 20 h; active compounds read low | AID 720641;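 active = growth at 42 °C up to 50% and 20 or more points under that at 30 °C, or under 10% at both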;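 note: 300 nL library stock went into each well; scaled to the means of positive and negative controls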
# HCMV UL50-53 inh: cytomegalovirus nuclear egress complex inhibition; inhibition, % (concentration not given with the values); HTRF UL50-UL53 interaction, normalized percent inhibition; 190,000 compounds, 0.15% hits;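 active = both replicates at 50% or more, plus weaker picks with an unusually low signal ratio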;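 note: stock transfer was 100 nL into about 20 µL; 0% = negative control wells and 100% = wells with untagged competitor protein; inactives centre near -12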
# Sa growth 42C second temp: recorded beside Sa growth 42C, whose call it bears; relative growth, %; measured here: growth at 30 °C;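 optical density after 20 h as mean of two plates; 100% = untreated growth and lower means inhibition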
# An asterisk follows results filed as active; / = not tested or not shown; & = joins results of further samples. Rows were taken by chance; any-hit rate near 0.8%.
# Key to letters: A = GIV Gai3 FP; B = Sa growth 42C; C = Sa growth 42C second temp; D = HCMV UL50-53 inh
structure: O=C(NCc1ccccc1Cl)C1CCCN(c2ncnc3onc(-c4ccc(F)cc4)c23)C1 (stereo not drawn)
  A = 102.9; B = 103.0; C = 88.0; D = /
structure: CN1CCN(CCCNC(=O)c2cc(=O)n(C)c3c2c(=O)n(C)c(=O)n3C)CC1
  A = 101.3; B = /; C = /; D = 2.7
structure: COC(=O)CNC(=O)c1cccnc1Oc1ccc(Cl)cc1
  A = 104.2; B = 97.2; C = 87.7; D = -14.1
structure: Nc1ccc2nc(-c3ccccc3Br)sc2c1
  A = 107.8; B = 91.0; C = 60.2; D = -30.7
structure: COc1cc(/C=N/NS(=O)(=O)c2ccc(Br)cc2)cc(OC)c1O
  A = /; B = 86.4; C = 77.7; D = -49.4
structure: Cc1cc2c(cc1NC(=O)CN1CCOCC1)n(C)c(=O)c(=O)n2C
  A = 100.1; B = /; C = /; D = 17.2
structure: O=C(NCCc1ccccc1)c1cc(Sc2cccc(Cl)c2)nc2ccccc12
  A = 100.5; B = 132.4; C = 86.2; D = /
structure: O=C(COc1ncnc2ccccc12)NC1CCCC1
  A = /; B = 104.4; C = 90.4; D = -24.9
structure: C=Cc1ccc(COC(=O)c2nnn(-c3ccc(F)cc3)c2C)cc1
  A = 103.5; B = /; C = /; D = 15.7
structure: COc1cc(NC(=O)CSc2ccc(-c3sc(-c4ccccc4)nc3C)nn2)cc(OC)c1
  A = 108.5; B = 106.5; C = 55.5; D = /
structure: O=C(Nc1cccc(F)c1)C1CCN(c2ncnc3c2sc2cccc(F)c23)CC1
  A = 104.0; B = 105.1; C = 86.6; D = /
structure: Cc1ccc(CNC(=O)c2cc3c(C)nc4ccccc4c3o2)cc1
  A = 100.4; B = 75.4; C = 92.3; D = 1.1
structure: CCC(=O)N1CCc2cc(Br)cc(S(=O)(=O)N3CCCC(C(=O)Nc4ccc(C)c(F)c4)C3)c21 (stereo not drawn)
  A = 105.3; B = 103.6; C = 90.5; D = 2.7
structure: Fc1ccc(Nc2nc3ccc(F)cc3s2)cc1
  A = 106.8; B = 97.3; C = 100.2; D = /
structure: COc1ccc(NC(=O)C2CCCO2)c(OC)c1 (stereo not drawn)
  A = /; B = 109.3; C = 80.8; D = -13.0
structure: COC(=O)c1cscc1OC(=O)c1ccc(C(F)(F)F)cc1
  A = 97.2; B = 21.4*; C = 54.9*; D = -8.1
structure: CC(C)Oc1ccc(CNC(=O)C2CCCCC2)cc1
  A = 109.0; B = 94.4; C = 96.6; D = -6.2
structure: Cn1c(C(C#N)C(=O)C2CCCCC2)nc2ccccc21 (stereo not drawn)
  A = /; B = 109.9; C = 84.1; D = -34.0
structure: O=C(CCC1CCCC1)Nc1noc2ccccc12
  A = 103.0; B = 75.9; C = 79.5; D = /
structure: COc1cccc(NC(=O)Cn2c(=O)n(-c3ccc(C)cc3)c(=O)c3ccc(C(=O)NCc4ccco4)cc32)c1
  A = 106.8; B = 103.8; C = 100.3; D = 7.4
structure: O=C1CN(C(=O)c2ccccc2C(F)(F)F)C(c2ccccc2)c2cc(F)ccc2N1 (stereo not drawn)
  A = 99.4; B = 73.5; C = 92.0; D = -16.3
structure: COc1ccc(C)cc1NCC(=O)NC1CCCCC1
  A = /; B = 87.1; C = 77.2; D = -3.7
structure: CC(=O)Nc1ccc2sc(NC(=O)CN3CCOCC3)nc2c1
  A = 102.6; B = 104.2; C = 71.1; D = -22.2
structure: CCCCNC(=O)c1cccc(NC(=O)c2nsc3ccccc23)c1
  A = 105.1; B = 105.8; C = 84.4; D = /
structure: CN1C(=O)/C(=C/c2ccc(O)cc2)SC1=Nc1ccc(Cl)cc1
  A = 107.5; B = 124.2; C = 93.8; D = -11.2
structure: N#Cc1ccccc1Cn1nnc2c(=O)[nH]c(C3CCCN(S(=O)(=O)c4ccc(F)cc4)C3)nc21 (stereo not drawn)
  A = 106.5; B = 105.2; C = 99.9; D = -0.3
structure: O=S(=O)(Nc1nc2ccc(Cl)cc2s1)c1cccs1
  A = /; B = 89.2; C = 71.7; D = -26.1
structure: Cc1ccc(CNC(=O)CCCc2nnc3n4nc(C)nc4c4ccccc4n23)cc1
  A = 99.5; B = 91.0; C = 88.8; D = /
structure: COc1ccc(NC(C)=O)cc1NC(=O)c1cncn1-c1ccc(F)cc1
  A = /; B = 102.3; C = 90.1; D = -14.9
structure: CCOC(=O)c1c(C)n(-c2ccc(C)cc2)c2ccc(OCC(O)Cn3c(C)nc4ccccc43)cc12 (stereo not drawn)
  A = 101.3; B = /; C = /; D = -18.9
structure: COC(=O)C1CCN(C(=O)COc2ncnc3c(Cl)cc(Cl)cc23)CC1
  A = /; B = 93.7; C = 93.1; D = -6.5
structure: Cc1nc(-c2ccccc2)sc1-c1nnc(-c2ccc(C(F)(F)F)cc2)o1
  A = 103.0; B = 87.3; C = 81.4; D = -27.9
structure: Cc1ccc(Sc2nc(-c3cccs3)ns2)cc1
  A = 101.4; B = 110.3; C = 90.2; D = -2.6
structure: Nc1cccc2c1C(=O)N(CC(=O)NC1CCCc3ccccc31)C2=O (stereo not drawn)
  A = /; B = 83.7; C = 94.7; D = -23.8
structure: CCc1cccc(NC(=O)Cn2ncn3c(cc4ccccc43)c2=O)c1
  A = 108.8&107.0; B = 99.0; C = 81.8; D = 1.3&-5.6
structure: CN1C(=O)Cc2cc(S(=O)(=O)NCc3ccc(Cl)cc3)ccc21
  A = 102.2; B = 109.8; C = 79.1; D = /
structure: COCCNC(=O)c1ccc(Cn2nc(-n3cccc3)c3c(C)cc(C)nc32)cc1
  A = 107.2; B = /; C = /; D = 0.3
structure: COc1ccc(OCC(O)CNC(=O)Nc2cc(C)cc(C)c2)cc1 (stereo not drawn)
  A = 101.8; B = 93.5; C = 89.9; D = -15.2
structure: CCOC(=O)c1[nH]c(=O)[nH]c1CSc1ccccn1
  A = 101.7; B = 101.2; C = 89.0; D = -28.2
structure: CC(C)Cn1[nH]c(CC(=O)O)cc1=O
  A = /; B = 86.1; C = 84.9; D = 4.6
structure: Cc1nc2sc3c(c2c(-c2cccs2)c1C(N)=O)CCCC3
  A = /; B = 100.8; C = 91.9; D = 3.8
structure: O=S(=O)(c1ccc(N2CN(S(=O)(=O)c3ccc(Cl)cc3)c3nc4ccccc4nc32)cc1)N1CCOCC1
  A = /; B = 75.7; C = 95.0; D = -17.4
structure: CCOC(=O)c1sc2nc(C)nc(N(C)C3CCCCC3)c2c1C
  A = 103.1; B = /; C = /; D = -19.0
structure: CN(C)CCN(Cc1ccco1)S(=O)(=O)c1cc2c(cc1Cl)NC(=O)CO2
  A = 96.8; B = 125.1; C = 83.8; D = /
structure: Cc1cc(C(=O)Nc2ccccc2)c(C)n1Cc1cccs1
  A = 102.1; B = 100.9; C = 86.0; D = 3.7

# More entries follow:
# Results follow in this order: GIV Gai3 FP, Sa growth 42C, Sa growth 42C second temp, HCMV UL50-53 inh
CSc1nnc(-c2ccc(C(C)(C)C)cc2)n1C
  102.6, 106.1, 85.2, -23.3
CN(C(=O)CN1CCOCC1)C1(c2ccccc2Cl)CCCCC1=O (stereo not drawn)
  /, 105.7, 90.2, -0.8
O=C(Nc1ccc(Cl)cc1)c1ccc2ncsc2c1
  96.3, 84.8, 78.8, -28.3
CC(C)CC(NC(N)=O)C(=O)O (stereo not drawn)
  103.1, 100.7, 86.3, -8.8
CC(=O)N1N=C(c2ccccc2)CC1c1cn(-c2ccccc2)nc1-c1ccc(C)cc1 (stereo not drawn)
  113.0, /, /, 1.5
N/C(=N\O)c1cccc(/C(N)=N/O)n1
  /, 99.3, 91.4, -15.1
CCc1ccc(S(=O)(=O)c2cnc3ccc(OC)cc3c2N2CCCC(C)C2)cc1 (stereo not drawn)
  101.2, 91.9, 86.8, 3.0
CCn1cc(C(=O)N2CCN(c3cc(Cl)ccc3C)CC2)c(=O)c2cc(S(=O)(=O)N3CCCCC3)ccc21
  96.9, 97.2, 88.2, -17.1
CSc1ccc(S(=O)(=O)NC2CCCC2)cc1
  100.6, 97.7, 89.9, -10.3
O=C(NCCN1CCCCCC1)c1cnn2c(C(F)(F)F)cc(-c3ccccc3)nc12
  99.6, 111.8, 89.7, /
Cc1ccc2nc(COC(=O)c3ccc(-n4cnnn4)cc3)cc(=O)n2c1
  /, 73.7, 76.5, -48.9
CS(=O)(=O)N1CCN(C(=S)NCc2ccc(F)cc2)CC1
  103.8, 114.5, 89.6, -3.4
COc1ccc(-c2nnc(SCC(=O)NCCc3ccccc3)nc2-c2ccc(OC)cc2)cc1
  105.2, 104.2, 83.9, /
COc1cc(CNCCc2ccccc2)ccc1OCc1ccc2c(c1)n(C)c(=O)n2C
  104.1, /, /, 5.7
Cc1ccccc1NC(=O)CC1SC(=O)N(c2ccccc2)C1=O (stereo not drawn)
  95.9, 112.5, 61.4, /
O=c1/c(=C/c2ccccc2)sc2nc(-c3ccccc3)nn12
  99.7, 102.8, 87.2, /
CCCN(C(=O)c1cc2c(=O)oc3ccc(C)cc3c2s1)c1ccc(OCC)cc1
  102.0, 105.3, 88.7, -17.7
COc1ccc(NC(=O)N2Cc3cccn3-c3ccccc32)cc1
  96.2, /, /, -20.7
CCn1c(NCCSc2nc3ccccc3n2C)nc2ccccc21
  100.0, 109.2, 74.2, /
O=C(NCc1ccccc1Cl)c1ccc2nc3sc4c(c3c(=O)n2c1)CCCC4
  104.4, /, /, -40.5
Cn1c(C(=O)N(Cc2ccccc2)C(C)(C)C)cc2sccc21
  103.9, 102.2, 105.8, 9.6
COC(=O)c1ccccc1NC(=O)CN1C(=O)c2c(c3ccccc3n2C)C1c1ccc(OC)cc1 (stereo not drawn)
  106.6, /, /, -4.0
OC(CN1CCCC1)Cn1ccc2ccccc21 (stereo not drawn)
  107.2, 104.0, 96.1, 12.1
Cc1cc(C)cc(OC(C)C(=O)Nc2c(C(=O)c3ccccc3)oc3ccccc23)c1 (stereo not drawn)
  100.9, 95.5, 90.9, -13.6
Cn1cc(C(=O)Nc2ccccc2Cl)c2[nH]c(=O)n(-c3ccccc3)c(=O)c21
  96.4, /, /, -33.8
CCOc1cc(CNCCSc2nnnn2C)cc(Cl)c1OCc1ccccc1F
  99.2, /, /, -24.9
O=C(CSc1nc2ccccc2o1)c1ccccc1
  /, 122.6, 64.0, -2.7
CCc1ccc(NCc2cccc3c2CN(CC)C3)cc1
  105.6, 94.0, 79.2, /
NCC1CCN(Cc2ccccc2)C1 (stereo not drawn)
  98.1, 76.9, 94.2, 16.3
Cc1ccc(CNS(=O)(=O)c2ccc(-c3n[nH]c(C)c3C)o2)o1
  109.6, /, /, -21.2
COc1ccc(N2CC(NC(=O)/C=C\c3ccc(OC)c(OC)c3)CC2=O)cc1 (stereo not drawn)
  96.7, 81.7, 88.1, /
CCc1ccccc1S(=O)(=O)NCCn1c(-c2ccncc2)nc2cccnc21
  102.8, /, /, -21.2
Cc1cc(C)n(-c2nc3nonc3nc2Nc2cccc(C(F)(F)F)c2)n1
  97.3, /, /, 4.2
COC(=O)c1cc(S(=O)(=O)N(C)c2cccc(C)c2)cn1C
  102.6, 100.2, 82.7, -21.8
Cc1cc2c(cc3n2CC(C)(C(=O)NC2CCCCC2)N(CCCOC(C)C)C3=O)o1 (stereo not drawn)
  102.9, /, /, -11.2
COc1ccc2c(c1)NC1(CCN(C(=O)CSc3ccccc3)CC1)c1cccn1-2
  106.6, /, /, -2.6
c1ccc2c(c1)nnn2-c1ncnc2sccc12
  /, 92.2, 78.7, -20.0
CN1C(=O)OC(c2ccccc2)C1=O (stereo not drawn)
  99.1, 96.7, 89.8, -0.2
Cc1ccc(Nc2nnc(-c3ccc(C)c(S(=O)(=O)N4CCOCC4)c3)c3ccccc23)cc1
  104.6, 99.0, 95.5, -22.1
Cc1noc(-c2ccccc2OCC(=O)Nc2nnc(CC(C)C)s2)n1
  97.6, /, /, -17.4
COc1cccc(-c2nnc(SCC(=O)N(C)C3CCCCC3)o2)c1
  94.9, 116.0, 86.6, -13.1

# Among those listed so far, 11 contain a thiophene ring, fused or not:
# Results follow in this order: GIV Gai3 FP, Sa growth 42C, Sa growth 42C second temp, HCMV UL50-53 inh
O=C(Nc1cccc(F)c1)C1CCN(c2ncnc3c2sc2cccc(F)c23)CC1
  104.0, 105.1, 86.6, /
COC(=O)c1cscc1OC(=O)c1ccc(C(F)(F)F)cc1
  97.2, 21.4*, 54.9*, -8.1
O=S(=O)(Nc1nc2ccc(Cl)cc2s1)c1cccs1
  /, 89.2, 71.7, -26.1
Cc1ccc(Sc2nc(-c3cccs3)ns2)cc1
  101.4, 110.3, 90.2, -2.6
Cc1nc2sc3c(c2c(-c2cccs2)c1C(N)=O)CCCC3
  /, 100.8, 91.9, 3.8
CCOC(=O)c1sc2nc(C)nc(N(C)C3CCCCC3)c2c1C
  103.1, /, /, -19.0
Cc1cc(C(=O)Nc2ccccc2)c(C)n1Cc1cccs1
  102.1, 100.9, 86.0, 3.7
CCCN(C(=O)c1cc2c(=O)oc3ccc(C)cc3c2s1)c1ccc(OCC)cc1
  102.0, 105.3, 88.7, -17.7
O=C(NCc1ccccc1Cl)c1ccc2nc3sc4c(c3c(=O)n2c1)CCCC4
  104.4, /, /, -40.5
Cn1c(C(=O)N(Cc2ccccc2)C(C)(C)C)cc2sccc21
  103.9, 102.2, 105.8, 9.6
c1ccc2c(c1)nnn2-c1ncnc2sccc12
  /, 92.2, 78.7, -20.0
